Vaccinia inh – blocks a specific stage of Vaccinia orthopoxvirus infection, primary screen, cell-based, single point; Vaccinia-infected cells, mCherry/Venus stage reporter fluorescence; active compounds read low; some inactives read as strong as hits; hit rate 0.01% among 89,000; activity change (mCherry), % (no concentration beside the values); AID 1053133, 2014;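 active = mCherry past -33% and 40 or more points under the early reporter, replicates agreeing; inconclusive = past -33% without that gap or agreement; tested in A549 cells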;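 note: scaled between vehicle wells and reference inhibitor wells; 23 nL library stock went into each well; one replicate is shown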
Vaccinia inh Venus – also measured in Vaccinia inh; calls as there; activity change (Venus), %; measured here: Venus reporter, other viral stage;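 negative = less Venus signal; first of two replicates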
Numbers without * were called inactive; ? = inconclusive; / = not tested or not shown. An excerpt; count on the stated rates, not on these rows.

SMILES | Vaccinia inh | Vaccinia inh Venus
COc1ccc(NC(=O)N(C)C[C@@H]2OCCCC[C@@H](C)Oc3ccc(NC(=O)CCCN(C)C)cc3C(=O)N([C@H](C)CO)C[C@@H]2C)cc1 | 19 | 9
C/C=C/c1ccc([C@@H]2[C@@H](CO)N(C(C)=O)C23CN(C(=O)NC2CCCC2)C3)cc1 | -13 | -3
COC(=O)[C@H]1[C@H](CO)[C@H]2Cn3c(ccc(C4=CCCCC4)c3=O)[C@H]2N1C(=O)c1ccccc1F | 6 | 11
CCC(=O)N1[C@H](C(=O)OC)[C@@H](CO)[C@@H]2Cn3c(ccc(-c4ccccc4F)c3=O)[C@@H]21 | 4 | 2
COc1ccc(NC(=O)Nc2ccc3c(c2)C(=O)N([C@@H](C)CO)C[C@H](C)[C@@H](CN(C)Cc2ccncc2)OCCCC[C@@H](C)O3)cc1 | 9 | -4
O=C(C[C@H]1CC[C@H]2[C@@H](COC[C@@H](O)CN2S(=O)(=O)c2ccccc2F)O1)NCc1ccccc1Cl | -5 | -10
Cc1ccc(S(=O)(=O)Nc2ccc3c(c2)CC(=O)N([C@@H](C)CO)C[C@@H](C)[C@H](CN(C)Cc2ccccc2)O3)cc1 | ? | /
COCCNC(=O)C[C@H]1CC[C@H]2[C@@H](COc3ccc(NC(=O)c4cnccn4)cc3C(=O)N2C)O1 | -7 | -5
CCCC#Cc1cnc2c(c1)C(=O)N([C@@H](C)CO)C[C@H](C)[C@@H](CN(C)S(=O)(=O)c1cn(C)cn1)O2 | 5 | 3
CS(=O)(=O)Nc1ccc2c(c1)[C@@H]1C[C@@H](CC(=O)N3CCOCC3)O[C@@H](CO)[C@@H]1O2 | 10 | 15
Cc1ccccc1S(=O)(=O)NCC[C@H]1CC[C@@H](NC(=O)Nc2cccc(F)c2)[C@H](CO)O1 | -6 | 4
COc1ccc(CN(C)C[C@@H]2Oc3ccc(NS(=O)(=O)c4ccc(C)cc4)cc3C(=O)N([C@@H](C)CO)C[C@@H]2C)cc1 | -3 | -4
CC(C)(O)C#Cc1cccc(-c2nc(C(=O)N[C@@H]3CCN(Cc4ccccc4)C3)cc3c2[C@@H](CCO)N(S(=O)C(C)(C)C)C3)c1 (stereo partly drawn) | -11 | 12
Cc1noc(C)c1NC(=O)N[C@@H]1CC[C@@H](CCNC(=O)C2CCC2)O[C@H]1CO | 4 | 1
CNC[C@@H]1Oc2ncc(-c3cccc(F)c3)cc2C(=O)N([C@@H](C)CO)C[C@@H]1C | -6 | -4
COc1ccccc1CNC(=O)C[C@H]1CC[C@H]2[C@@H](COC[C@@H](O)CN2Cc2ccccc2)O1 | -8 | -12
C[C@@H]1CN([C@H](C)CO)C(=O)Cc2cc(N(C)C)ccc2O[C@@H]1CN(C)S(=O)(=O)c1cn(C)cn1 | 9 | 14
COC(=O)C[C@@H]1C=C[C@@H](NS(=O)(=O)c2ccc(OC)cc2)[C@H](CO)O1 | 4 | 7
C[C@H](CO)N1C[C@H](C)[C@H](CN(C)C(=O)C2CCCCC2)Oc2cc(C#CC(C)(C)O)ccc2S1(=O)=O | 2 | 1
COc1cccc(S(=O)(=O)Nc2ccc3c(c2)OC[C@H](C)N(Cc2ccccc2F)C[C@H](C)[C@@H](OC)CN(C)C3=O)c1 | -18 | -18
O=C(O)C[C@H]1C[C@H]2c3cc(NC(=O)C4CCC4)ccc3O[C@H]2[C@@H](CO)O1 | 4 | 6
COc1cccc(NC(=O)Nc2ccc3c(c2)C(=O)N(C)[C@@H]2CC[C@@H](CC(=O)NCCc4ccccc4)O[C@@H]2CO3)c1 | -8 | 2
C[C@@H]1CN([C@H](C)CO)C(=O)c2cc(NS(=O)(=O)c3ccccc3)ccc2O[C@H]1CN(C)Cc1ccc(-c2ccccc2)cc1 | ? | /
COCCNC(=O)C[C@H]1CC[C@@H]2[C@H](COc3ccc(NC(=O)Cc4ccccc4)cc3C(=O)N2C)O1 | 4 | 2
CCNC(=O)C[C@H]1CC[C@@H]2[C@H](COC[C@@H](O)CN2C(=O)Nc2ccc3c(c2)OCO3)O1 | 22 | 11
Other compounds follow.
SMILES | Vaccinia inh | Vaccinia inh Venus
C[C@@H]1CN([C@H](C)CO)C(=O)c2cc(NC(=O)Cc3ccccc3)ccc2O[C@@H](C)CCCCO[C@H]1CN(C)S(=O)(=O)c1ccccc1 | ? | /
C[C@H]1CN([C@@H](C)CO)C(=O)c2cccc(NC(=O)C3CCCCC3)c2O[C@H]1CN(C)S(=O)(=O)c1cccs1 | -2 | -15
CC(=O)N1[C@@H](CO)[C@@H](c2ccccc2)C12CN(S(=O)(=O)c1ccccc1)C2 | 6 | 3
O=C(C1CCCCC1)N1CC(=O)N2[C@H](CO)[C@H](c3ccc(Br)cc3)[C@@H]2C1 | -4 | 1
COCC(=O)Nc1ccc2c(c1)[C@@H]1C[C@@H](CC(=O)NCc3ccccc3OC)O[C@@H](CO)[C@@H]1O2 | -1 | 1
CCCC(=O)N1CC2(C1)CN(C(=O)CC)[C@H](CO)c1c2c2ccc(OC)cc2n1C | 9 | 5
CC(=O)N(C)C[C@H]1Oc2ncc(C#Cc3cccc(F)c3)cc2C(=O)N([C@@H](C)CO)C[C@@H]1C | 17 | 1
C[C@H](CO)N1C[C@H](C)[C@@H](CN(C)S(=O)(=O)c2cccc(C#N)c2)OCc2cnnn2CCCC1=O | 8 | 3
CCCNC(=O)N(C)C[C@@H]1Oc2cc(C#CC(C)C)ccc2S(=O)(=O)N([C@H](C)CO)C[C@H]1C | -9 | -14
COc1ccccc1C(=O)Nc1ccc2c(c1)C(=O)N(C)C[C@H](OC)[C@@H](C)CN(C(C)=O)[C@@H](C)CO2 | -3 | 12
Cc1noc(C)c1NC(=O)Nc1ccc2c(c1)CC(=O)N([C@@H](C)CO)C[C@H](C)[C@@H](CN(C)C(=O)Nc1cccc3ccccc13)O2 | 9 | 17
COc1ccccc1CN1[C@@H]2c3ccc(C4=CCCCC4)c(=O)n3C[C@H]1[C@H](CO)[C@H]2C(=O)N(C)C | 2 | -5
C[C@@H](NC(=O)C[C@H]1CC[C@@H](NC(=O)Cc2ccccn2)[C@@H](CO)O1)c1ccccc1 | -1 | 0
O=S(=O)(NC[C@@H]1CC[C@@H]2[C@@H](CN2Cc2ccccc2C(F)(F)F)O1)c1ccccc1 | 12 | 13
CNC[C@H]1Oc2cc(C#CC(C)C)ccc2S(=O)(=O)N([C@@H](C)CO)C[C@H]1C | -17 | -14
COc1cccc(C#Cc2ccc3c(c2)O[C@H](CN(C)S(=O)(=O)c2ccccc2F)[C@H](C)CN([C@@H](C)CO)S3(=O)=O)c1 | -24 | -19
COc1ccc(-c2ccc3n(c2=O)C[C@H]2[C@H](CO)[C@@H](C(=O)N(C)C)N(CC4CC4)[C@@H]32)cc1 | 15 | 13
C[C@@H]1CN([C@H](C)CO)C(=O)c2cc(NC(=O)Cc3ccccc3)ccc2O[C@@H](C)CCCCO[C@H]1CN(C)C(=O)C1CCCCC1 | -31 | -22
O=C(Nc1cccc(Cl)c1)N1C[C@H]2[C@@H](c3ccccc31)[C@@H](CO)N2Cc1cccnc1 | 9 | 0
C[C@H](CO)N1C[C@H](C)[C@@H](CN(C)Cc2ccccc2)Oc2cc(C3=CCCC3)ccc2S1(=O)=O | -22 | -17
O=C(C1CCOCC1)N1CC[C@@H]2[C@H](CO)Nc3ccc(-c4ccc(F)cc4)cc3[C@@H]21 | -15 | 7
C[C@@H]1CN([C@@H](C)CO)C(=O)c2cccc(NC(=O)Nc3ccc(C(F)(F)F)cc3)c2O[C@@H]1CN(C)Cc1ccc(Oc2ccccc2)cc1 | -23 | -11
O=C(C[C@@H]1C[C@@H]2c3cc(NS(=O)(=O)c4ccccc4)ccc3O[C@@H]2[C@H](CO)O1)NC1CCCC1 | -5 | -6
CC(C)C#Cc1ccc([C@@H]2[C@H]3CN(S(=O)(=O)Cc4ccccc4)CCCCN3[C@H]2CO)cc1 | ? | /
C[C@@H]1CN([C@H](C)CO)S(=O)(=O)c2ccc(-c3cncnc3)cc2O[C@H]1CN(C)Cc1ccccc1 | -16 | -21
Other results follow:
SMILES | Vaccinia inh | Vaccinia inh Venus
COc1ccc(NC(=O)Nc2cccc3c2O[C@H](CN(C)Cc2ccncc2)[C@@H](C)CN([C@@H](C)CO)C3=O)cc1 | 4 | -1
COc1ccc(S(=O)(=O)N(C)C[C@@H]2Oc3c(NC(=O)Nc4ccc5c(c4)OCO5)cccc3C(=O)N([C@H](C)CO)C[C@@H]2C)cc1 | -5 | -4
O=C(C[C@H]1C[C@@H]2c3cc(NC(=O)C4CCOCC4)ccc3O[C@@H]2[C@H](CO)O1)NCc1ccccn1 | 12 | 6
CC=Cc1ccc2n(c1=O)C[C@@H]1[C@@H](CO)[C@H](C(=O)NCC)N(Cc3cccc(F)c3)[C@H]21 (mixture of isomers) | 18 | 6
COc1ccc(CN(C)C[C@H]2OCCCC[C@@H](C)Oc3ccc(NC(=O)c4ccncc4)cc3C(=O)N([C@H](C)CO)C[C@H]2C)cc1 | -12 | -4
C[C@@H]1CN([C@@H](C)CO)C(=O)c2cccc(NC(=O)c3cnccn3)c2O[C@H]1CN(C)CC1CC1 | 5 | 12
O=S(=O)(Cc1ccccc1)N1CCCCN2[C@@H](CO)[C@@H](c3ccc(-c4cncnc4)cc3)[C@@H]2C1 | 12 | 2
O=C(NCC[C@@H]1CC[C@H](NC(=O)C2CC2)[C@@H](CO)O1)Nc1ccc(Cl)cc1 | -2 | -6
CCCNC(=O)N(C)C[C@@H]1Oc2cc(-c3ccccc3)ccc2S(=O)(=O)N([C@@H](C)CO)C[C@H]1C | -4 | 4
COc1ccccc1-c1cnc2c(c1)C(=O)N([C@H](C)CO)C[C@H](C)[C@H](CN(C)C(=O)CN(C)C)O2 | 3 | -3
C[C@@H]1CN([C@@H](C)CO)C(=O)c2cc(NS(C)(=O)=O)ccc2O[C@@H](C)CCCCO[C@@H]1CN(C)C(=O)c1ccncc1 | 6 | 10
C[C@@H]1CCCCO[C@@H](CN(C)S(=O)(=O)c2ccc(F)cc2)[C@@H](C)CN([C@@H](C)CO)C(=O)c2cc(NS(=O)(=O)c3ccc(Cl)cc3)ccc2O1 | 0 | 2
CN(C)CC#Cc1ccc([C@@H]2[C@H](CO)N3C(=O)CN(C(=O)Cc4ccccc4)C[C@@H]23)cc1 | 9 | 4
COCC(=O)Nc1ccc2c(c1)OC[C@@H](C)N(C(=O)c1cnccn1)C[C@H](C)[C@@H](OC)CN(C)C2=O | 5 | 4
C[C@@H]1CN([C@H](C)CO)C(=O)c2cccc(NC(=O)c3ccncc3)c2O[C@@H]1CN(C)Cc1ccc(Cl)c(Cl)c1 | 4 | -1
COCC(=O)Nc1ccc2c(c1)C(=O)N(C)C[C@H](OC)[C@H](C)CN(Cc1cccnc1)[C@H](C)CO2 | 3 | -3
C[C@@H]1CCCCO[C@@H](CN(C)C(=O)Nc2ccccc2)[C@@H](C)CN([C@@H](C)CO)C(=O)c2cc(NC(=O)Nc3ccc(C(F)(F)F)cc3)ccc2O1 | -2 | -6
C[C@H]1CN([C@@H](C)CO)S(=O)(=O)c2ccc(-c3cccc(F)c3)cc2O[C@@H]1CN(C)S(=O)(=O)c1ccccc1 | ? | /
C[C@H](CO)N1C[C@H](C)[C@H](CN(C)C(=O)Nc2cccc3ccccc23)Oc2ncc(-c3cc4ccccc4o3)cc2C1=O | ? | /
C[C@@H]1CN([C@H](C)CO)C(=O)c2c(c3ccccc3n2C)-c2ccccc2CO[C@@H]1CN(C)Cc1cccnc1 | -22 | -20
C[C@H]1CN([C@@H](C)CO)C(=O)c2cc(NC(=O)Cn3cnnn3)ccc2O[C@H]1CN(C)S(=O)(=O)c1ccc(Cl)cc1 | 9 | -3
O=C(C[C@H]1C[C@@H]2c3cc(NC(=O)c4ccc5c(c4)OCO5)ccc3O[C@@H]2[C@@H](CO)O1)NCc1ccc(Oc2ccccc2)cc1 | ? | /

Retrieved by compound from the entries so far (7):
SMILES | Vaccinia inh | Vaccinia inh Venus
C[C@@H]1CCCCO[C@@H](CN(C)S(=O)(=O)c2ccc(F)cc2)[C@@H](C)CN([C@@H](C)CO)C(=O)c2cc(NS(=O)(=O)c3ccc(Cl)cc3)ccc2O1 | 0 | 2
COc1ccc(S(=O)(=O)N(C)C[C@@H]2Oc3c(NC(=O)Nc4ccc5c(c4)OCO5)cccc3C(=O)N([C@H](C)CO)C[C@@H]2C)cc1 | -5 | -4
COCC(=O)Nc1ccc2c(c1)OC[C@@H](C)N(C(=O)c1cnccn1)C[C@H](C)[C@@H](OC)CN(C)C2=O | 5 | 4
O=C(C[C@H]1C[C@@H]2c3cc(NC(=O)C4CCOCC4)ccc3O[C@@H]2[C@H](CO)O1)NCc1ccccn1 | 12 | 6
C[C@@H]1CN([C@H](C)CO)C(=O)c2cccc(NC(=O)c3ccncc3)c2O[C@@H]1CN(C)Cc1ccc(Cl)c(Cl)c1 | 4 | -1
COCC(=O)Nc1ccc2c(c1)C(=O)N(C)C[C@H](OC)[C@H](C)CN(Cc1cccnc1)[C@H](C)CO2 | 3 | -3
O=S(=O)(Cc1ccccc1)N1CCCCN2[C@@H](CO)[C@@H](c3ccc(-c4cncnc4)cc3)[C@@H]2C1 | 12 | 2

Compound activity: PubChem BioAssay, Broad Institute
